MT1-MMP reporter: MT1-MMP gene expression reporter suppression – cell-based, luciferase reporter, luminescence (AID 618) | calls from a first round at 10 µM; hits with a dose series show EC50 in µM | MT1-MMP promoter luciferase reporter cells, luminescence | hit rate 0.62% among 87,000;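 active means over half of the reporter light lost at 10 µM or EC50 under 50 µM; inactive means the rest and hits that failed the dose series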;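 further: actives suppress MT1-MMP promoter-driven transcription so potencies describe inhibitors; HT1080 fibrosarcoma cells; overnight exposure; toxic or luciferase-blocking compounds were not removed from the actives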
WNV protease inh: WNV NS2B-NS3 proteinase inhibition; WNV NS2B-NS3 protease, fluorogenic substrate Ex360/Em465; hits give low values; hit rate 0.18% among 65,000; z-score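 (tested at a level between 10 and 100 µM)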;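 active means z-score at -3 or under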;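 further: score is relative to mean and spread of the compound wells of a plate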
Target sequence (P06935 1371-1501 limits assumed): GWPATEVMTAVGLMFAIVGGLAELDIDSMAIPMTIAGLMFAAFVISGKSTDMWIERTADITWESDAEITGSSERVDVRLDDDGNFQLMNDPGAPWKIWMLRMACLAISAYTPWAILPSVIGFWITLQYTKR
Target sequence (P06935 1502-1679 limits assumed): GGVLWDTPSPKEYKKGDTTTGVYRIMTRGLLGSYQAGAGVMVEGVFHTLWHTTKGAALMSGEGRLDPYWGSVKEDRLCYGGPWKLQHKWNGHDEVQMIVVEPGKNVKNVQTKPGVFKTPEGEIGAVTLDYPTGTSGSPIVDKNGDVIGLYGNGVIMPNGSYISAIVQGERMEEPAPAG
Hsc70: small molecules displacing fluorescent ligand from Hsc70 – biochemical, fluorescence polarization, primary screen (AID 568). displacement, % at 20 µM, or IC50 in µM where a hit was titrated. 83,000 tested, under 10 active. Hsc70 fluorescence polarization, probe displacement; higher % means a stronger effect; strong numbers were not always called active;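 active means displacement above 50% without optical interference and an IC50 on retest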;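 further: ATPase domain with a fluorescein-tagged ATP probe; 0% = vehicle and 100% = excess ADP; read after one hour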
Starred values were filed as active, the others as inactive. A portion of the library. The share of hits here may be higher or lower than overall.

`COc1ccc(NC(=O)CSc2nnc(-c3ccccc3Cl)n2Cc2ccco2)c(OC)c1` gave MT1-MMP reporter inactive, WNV protease inh -0.89 and Hsc70 -7.2%.
For CCOC(=O)c1ccc2[nH]c(C)c(CCC(C)=O)c(=O)c2c1 the results were MT1-MMP reporter inactive, WNV protease inh -0.03 and Hsc70 3.8%.
For O=S(=O)(c1ccc2c(c1)OCCO2)N1CCC(n2nnc3cc(F)ccc32)CC1 the results were MT1-MMP reporter inactive, WNV protease inh 0.16 and Hsc70 5.7%.
Nc1cc(Cl)c(N)cc1Cl was read as MT1-MMP reporter inactive, WNV protease inh -0.69 and Hsc70 5.8%.
CCOC(=O)N1CCN(C(=O)c2ccccc2Oc2ccccc2)CC1 was read as MT1-MMP reporter inactive, WNV protease inh 2.4 and Hsc70 -3.0%.
`CC1Cn2c(nnc2-c2cccs2)S1` (stereo unspecified) gave MT1-MMP reporter inactive, WNV protease inh -0.41 and Hsc70 -0.9%.
O=C(Cn1cnc2c(nnn2Cc2ccc(F)cc2)c1=O)NCC1CCCO1 (stereo unspecified) was read as MT1-MMP reporter inactive, WNV protease inh -0.5 and Hsc70 1.8%.
`CCC(=O)Nc1cc(Cl)ccc1N1CCN(C(=O)CC)CC1` gave MT1-MMP reporter inactive, WNV protease inh 0.25 and Hsc70 -1.5%.
COc1cc(N)ccc1NC(=O)c1cccs1 was read as MT1-MMP reporter inactive, WNV protease inh -0.67 and Hsc70 2.1%.
Screening Cc1ccc2c(c1)N(CCCC(=O)NCc1ccc3c(c1)OCO3)C(=O)CO2 returned MT1-MMP reporter inactive, WNV protease inh 0.47 and Hsc70 1.0%.
Screening Cc1ccnc(N2C(=O)c3ccccc3C2Nc2ccccc2Cl)c1 (stereo unspecified) returned MT1-MMP reporter inactive, WNV protease inh 0.29 and Hsc70 -2.0%.
For CCOC(=O)c1ccc(NC(=O)NC2CC3CCC(C2)N3Cc2nnnn2C(C)(C)C)cc1 (stereo unspecified) the results were MT1-MMP reporter inactive, WNV protease inh 1.03 and Hsc70 -1.6%.
Screening Cc1ccc(C)c(N2CCN(CC3CC=CCC3)CC2)c1 (stereo unspecified) returned MT1-MMP reporter inactive and Hsc70 -1.8%.
O=C(Nc1ccccc1Cl)N1CCN(c2ncccn2)CC1 was read as MT1-MMP reporter inactive, WNV protease inh -0.78 and Hsc70 9.7%.
For CCN(CC)CCCCOc1ccccc1OC the results were MT1-MMP reporter inactive, WNV protease inh 0.64 and Hsc70 1.8%.
For COc1ccc(C(=O)N2CCN(C(=O)Cc3ccccc3)CC2)cc1OC the results were MT1-MMP reporter inactive, WNV protease inh 0.7 and Hsc70 -4.6%.
Screening COCC(=O)Nc1nc2ccc(C)cc2s1 returned MT1-MMP reporter inactive, WNV protease inh 0.51 and Hsc70 7.8%.
Screening CCCCOc1ccc(C(=O)Nc2ccc(S(=O)(=O)Nc3cc(C)on3)cc2)cc1OC returned MT1-MMP reporter inactive, WNV protease inh 0.49 and Hsc70 -7.2%.
COc1cc2c(cc1OC)CN(C(=O)CSc1n[nH]c(N)n1)CC2 was read as MT1-MMP reporter inactive, WNV protease inh -0.96 and Hsc70 -8.7%.
`Cc1cc(NC(=O)c2noc3c2CCCC3)n(-c2ccccc2)n1` gave MT1-MMP reporter inactive, WNV protease inh 0.65 and Hsc70 4.8%.
Screening O=c1nc2n(c3sc4c(c13)CCCC4)C(CBr)CS2 (stereo unspecified) returned MT1-MMP reporter inactive and Hsc70 -0.4%.
For COc1ccc(OC)c(C(=O)CSc2nnc(Cc3cccs3)n2CCc2ccccc2)c1 the results were MT1-MMP reporter inactive and Hsc70 -8.0%.
`Cn1nc(C(=O)NCCN2CCOCC2)c2ccccc2c1=O` gave MT1-MMP reporter inactive, WNV protease inh 0.79 and Hsc70 2.1%.
`C[C@]12CC[C@@H]3c4ccc(O)cc4CC[C@H]3[C@@H]1CCC2=O` gave MT1-MMP reporter inactive, WNV protease inh -0.24 and Hsc70 2.0%.
`CCOC(=O)Cn1ncc(-c2ccccc2)c1N` gave MT1-MMP reporter inactive, WNV protease inh 0.36 and Hsc70 2.9%.
`COc1ccc(NC(=O)CN(c2cc(C)cc(C)c2)S(=O)(=O)c2c(C)noc2C)cc1OC` gave MT1-MMP reporter inactive, WNV protease inh 0.24 and Hsc70 -2.9%.
`c1nc2nc3c(c(N4CCOCC4)n2n1)CCCC3` gave MT1-MMP reporter inactive, WNV protease inh -0.32 and Hsc70 -4.8%.
Screening COc1ccc(NC(=O)CSc2nnc(Cc3cccn3C)n2-c2ccc(F)cc2)cc1 returned MT1-MMP reporter inactive, WNV protease inh -0.02 and Hsc70 2.0%.
`C=CCOC(=O)C1=C(C)NC(SC)=C(C#N)C1c1cccs1` (stereo unspecified) gave MT1-MMP reporter inactive and Hsc70 1.8%.
For Cc1cc(N2CCN(c3ccccn3)CC2)n2nc(C)nc2n1 the results were MT1-MMP reporter inactive, WNV protease inh 0.16 and Hsc70 -5.1%.
`COc1ccccc1NC(=O)CCC(=O)Nc1nnc(C(F)(F)F)s1` gave MT1-MMP reporter inactive, WNV protease inh 0.03 and Hsc70 -3.3%.
For O=C(Nc1nc2ccccc2s1)C1CCCN1S(=O)(=O)c1ccc(Cl)cc1 (stereo unspecified) the results were MT1-MMP reporter inactive, WNV protease inh -0.46 and Hsc70 -2.9%.
CC(C)Nc1nc(NC(C)C)nc(C(N)=O)n1 was read as MT1-MMP reporter inactive, WNV protease inh -0.49 and Hsc70 1.2%.
Screening C=CCSc1nc2ccccc2[nH]1 returned MT1-MMP reporter inactive, WNV protease inh -1.11 and Hsc70 6.2%.
`COCCOC(=O)C1=C(C)NC2=C(C(=O)CC(c3cccs3)C2)C1c1ccsc1` (stereo unspecified) gave MT1-MMP reporter inactive, WNV protease inh -1.08 and Hsc70 -0.8%.
`Cc1cc(NC(=O)c2sc(Nc3cccc(C(F)(F)F)c3)nc2N)no1` gave MT1-MMP reporter inactive, WNV protease inh -1.14 and Hsc70 5.1%.
Screening c1ccc(-c2ccc(-c3cnc4n3CCCCC4)cc2)cc1 returned MT1-MMP reporter inactive and Hsc70 2.4%.
Screening CCn1c(=O)c2cc(S(=O)(=O)NCCOc3ccccc3)ccc2n(CC)c1=O returned MT1-MMP reporter inactive, WNV protease inh -0.99 and Hsc70 1.8%.
For CCOC(=O)c1ccc(NC(=O)CNC(=O)C2CCCCC2)cc1 the results were MT1-MMP reporter inactive, WNV protease inh -0.1 and Hsc70 -0.2%.
Screening Cn1c(N)c(C(=O)COC(=O)C2=COCCO2)c(=O)n(C)c1=O returned MT1-MMP reporter inactive and Hsc70 2.7%.
COC(=O)c1nnn(-c2nonc2N)c1-c1cccs1 was read as MT1-MMP reporter inactive, WNV protease inh -0.41 and Hsc70 0.7%.
`Cc1ccc(CCNC(=O)C2CCN(c3nn4c(=O)cc(C)nc4s3)CC2)cc1` gave MT1-MMP reporter inactive, WNV protease inh 1.04 and Hsc70 -10.1%.
For COc1cc(/C=C(/C(=O)c2cccs2)c2nc3ccccc3[nH]2)ccc1O the results were MT1-MMP reporter inactive and Hsc70 -2.9%.
COC(=O)c1ccccc1NC(=O)Nc1cccnc1 was read as MT1-MMP reporter inactive, WNV protease inh 0.55 and Hsc70 -0.5%.
CC(C)(C)CC(C)(C)c1ccc(O)c(CN2CCN(CCC#N)CC2)c1 was read as MT1-MMP reporter inactive and Hsc70 -1.6%.

12 entries out of the list, ordered by length of the SMILES, largest number first.
`COCCOC(=O)C1=C(C)NC2=C(C(=O)CC(c3cccs3)C2)C1c1ccsc1` (stereo unspecified) gave MT1-MMP reporter inactive, WNV protease inh -1.08 and Hsc70 -0.8%.
`Cc1ccc(CCNC(=O)C2CCN(c3nn4c(=O)cc(C)nc4s3)CC2)cc1` gave MT1-MMP reporter inactive, WNV protease inh 1.04 and Hsc70 -10.1%.
For COc1cc(/C=C(/C(=O)c2cccs2)c2nc3ccccc3[nH]2)ccc1O the results were MT1-MMP reporter inactive and Hsc70 -2.9%.
For O=C(Nc1nc2ccccc2s1)C1CCCN1S(=O)(=O)c1ccc(Cl)cc1 (stereo unspecified) the results were MT1-MMP reporter inactive, WNV protease inh -0.46 and Hsc70 -2.9%.
`Cc1cc(NC(=O)c2sc(Nc3cccc(C(F)(F)F)c3)nc2N)no1` gave MT1-MMP reporter inactive, WNV protease inh -1.14 and Hsc70 5.1%.
Screening Cn1c(N)c(C(=O)COC(=O)C2=COCCO2)c(=O)n(C)c1=O returned MT1-MMP reporter inactive and Hsc70 2.7%.
`COc1ccccc1NC(=O)CCC(=O)Nc1nnc(C(F)(F)F)s1` gave MT1-MMP reporter inactive, WNV protease inh 0.03 and Hsc70 -3.3%.
For CCOC(=O)c1ccc(NC(=O)CNC(=O)C2CCCCC2)cc1 the results were MT1-MMP reporter inactive, WNV protease inh -0.1 and Hsc70 -0.2%.
Screening c1ccc(-c2ccc(-c3cnc4n3CCCCC4)cc2)cc1 returned MT1-MMP reporter inactive and Hsc70 2.4%.
COC(=O)c1nnn(-c2nonc2N)c1-c1cccs1 was read as MT1-MMP reporter inactive, WNV protease inh -0.41 and Hsc70 0.7%.
COC(=O)c1ccccc1NC(=O)Nc1cccnc1 was read as MT1-MMP reporter inactive, WNV protease inh 0.55 and Hsc70 -0.5%.
Screening C=CCSc1nc2ccccc2[nH]1 returned MT1-MMP reporter inactive, WNV protease inh -1.11 and Hsc70 6.2%.

Remaining list, next part.
CCn1c(=S)sc2nc(C)sc21 was read as MT1-MMP reporter inactive, WNV protease inh 0.95 and Hsc70 -6.9%.
CC1CC(C)CN(CC(=O)N2CCc3[nH]c4ccccc4c3C2)C1 (stereo unspecified) was read as MT1-MMP reporter inactive, WNV protease inh -0.35 and Hsc70 3.6%.
For COc1ccc(C)cc1NC(=O)c1cnc2n(c1=O)CCS2 the results were MT1-MMP reporter inactive, WNV protease inh 0.08 and Hsc70 -4.3%.
For COc1ccc(C2c3c(oc4c(C)cc(C)cc4c3=O)C(=O)N2Cc2cccnc2)cc1OC (stereo unspecified) the results were MT1-MMP reporter inactive, WNV protease inh 0.88 and Hsc70 -1.9%.
CC(=O)Oc1cc(C(C)C)c(OCCN(C)C)cc1C was read as MT1-MMP reporter inactive, WNV protease inh 0.06 and Hsc70 1.0%.
`Cc1ccc2c(c1)c1c(n2CC(O)Cn2c(C)nc3ccccc32)/C(=N\O)CCC1` (stereo unspecified) gave MT1-MMP reporter inactive, WNV protease inh 0.05 and Hsc70 -77.6%.
For COc1ccc(/C=N\NC(=S)SCN2C(=O)C3CCC(C)(C2=O)C3(C)C)cc1 (stereo unspecified) the results were MT1-MMP reporter inactive and Hsc70 2.4%.
Screening CNC(=O)c1ccc2snnc2c1 returned MT1-MMP reporter inactive, WNV protease inh -1.56 and Hsc70 2.0%.
`CCc1c(C)nc2[nH]nc(NC(=O)C(F)(F)F)n2c1=O` gave MT1-MMP reporter inactive, WNV protease inh 1.47 and Hsc70 2.6%.
For CNc1nc(NC)nc(-n2c(C(F)(F)F)nc3ccccc32)n1 the results were MT1-MMP reporter inactive, WNV protease inh 0.03 and Hsc70 5.9%.
CCOc1ccc(-c2nc(C#N)c(NCC(C)C)o2)cc1 was read as MT1-MMP reporter inactive, WNV protease inh -0.28 and Hsc70 2.3%.
Cc1ccccc1N1C(=O)c2ccccc2N2C(=O)c3ccccc3C12 (stereo unspecified) was read as MT1-MMP reporter inactive and Hsc70 -3.3%.
`O=C(CCn1c(=O)sc2ccccc21)NCCC1=CCCCC1` gave MT1-MMP reporter inactive, WNV protease inh 0.14 and Hsc70 5.4%.
`CCc1ccc(C2=CC(c3cc(Br)ccc3F)n3ncnc3N2)cc1` (stereo unspecified) gave MT1-MMP reporter inactive and Hsc70 4.1%.
Screening COc1ccc(C2CC(=O)C=C(NCC3CCCO3)C2)cc1 (stereo unspecified) returned MT1-MMP reporter inactive, WNV protease inh 0.18 and Hsc70 1.2%.
C1=CC2CC1CC2CNCc1ccco1 (stereo unspecified) was read as MT1-MMP reporter inactive, WNV protease inh 0.15 and Hsc70 -2.7%.
For CCOC(=O)C1CCCN(C(=O)c2ccccc2NC(C)=O)C1 (stereo unspecified) the results were MT1-MMP reporter inactive, WNV protease inh -0.13 and Hsc70 3.9%.
Screening O=C(O)CSCc1ccc(C(=O)O)o1 returned MT1-MMP reporter inactive and Hsc70 3.4%.
Screening COC(=O)CSc1nc(-c2ccc(F)cc2)cc(C(F)(F)F)n1 returned MT1-MMP reporter inactive and Hsc70 2.3%.
`Cc1ccc(-c2nnc(SCC(=O)N3CCCC3)o2)cc1C` gave MT1-MMP reporter inactive, WNV protease inh 0.72 and Hsc70 0.1%.
Screening CCc1nnc(NC(=O)C2CCCN(S(=O)(=O)c3ccccc3)C2)s1 (stereo unspecified) returned MT1-MMP reporter inactive and Hsc70 -0.3%.
COc1ccccc1-c1nc(C#N)c(NCc2ccc(F)cc2)o1 was read as MT1-MMP reporter inactive, WNV protease inh -0.32 and Hsc70 -3.1%.
`CCOc1cccc(C(=O)Nc2cc(-c3nn4c(C)nnc4s3)ccc2C)c1` gave MT1-MMP reporter inactive, WNV protease inh -1.5 and Hsc70 3.5%.
`CCOc1ccc(/C=N/Nc2nc(N3CCCC3)nc(N3CCCC3)n2)cc1OC` gave MT1-MMP reporter inactive and Hsc70 1.6%.
O=c1[nH]c(-c2ccccc2O)nc2c1CCCC2 was read as MT1-MMP reporter inactive, WNV protease inh -0.14 and Hsc70 -1.6%.
CCCC(=O)N1CCN(c2ccc(NC(=O)c3ccco3)cc2)CC1 was read as MT1-MMP reporter inactive, WNV protease inh -0.56 and Hsc70 -0.7%.

Bioassay records from PubChem.
